Source: PubChem
Autofluor counter – compound fluorescence in toxin protease inhibitor counterscreen; fluorescence intensity (concentration not given with the values); AID 624483; 360,000 tested, 3.1% active; compound autofluorescence counterscreen, microsphere flow cytometry; hits give high values;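 active = at least 3 SD above the mean of all compounds, about 16000 in these data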;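 also: 100 nL of 1 mM stock went into each well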
BJeLR lethal – BJeLR cell viability loss; BJeLR (HRASV12) viability, CellTiter-Glo ATP luminescence, 48 h; reference of the scale not given here; inhibition, % (test concentration not listed); 300,000 tested, 0.17% active; AID 1554;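 active = replicate mean above 50%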;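 also: 50 nL library stock added to about 25 µL; numbers are from one replicate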
Mtb hypoxia rep – Mtb hypoxia fluorescent reporter inhibition; fluorescence inhibition, % (test concentration not listed); 300,000 tested, 0.1% active; AID 1159583; M. tuberculosis hypoxia-regulated fluorescent reporter, fluorescence;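 active = 35 to 45% if threefold the growth effect, above 45% if 1.5-fold the growth effect; inactive = the rest, general growth blockers included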;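 also: wells of about 50 µL received 100 nL stock; 0% = vehicle wells and 100% = reference inhibitor wells; whole bacteria with a GFP reporter of the hypoxia response; strong numbers were not always called active; many hits fall short of the cut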
Sa ugtP lethal – compounds lethal to S. aureus RN4220 ugtP deletion mutant. OD600 growth, 16 h; some inactives read as strong as hits. growth inhibition, % (concentration not given with the values). 330,000 tested, 0.54% active;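 active = z-score under -3 and OD600 up to 0.15 on both plates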;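 also: plate controls were untreated wells for no effect and antibiotic for full effect; wells of about 80 µL received 100 nL stock; the first replicate is given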
PrP 5UTR inh – inhibition of PrP 5' UTR reporter expression | cell-based PrP 5' UTR mRNA reporter, plate reader | inhibition, % (test concentration not listed) | 340,000 tested, 0.35% active | AID 488862;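 active = every replicate at 50% or more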;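 also: 0 = median of the neutral control wells; tested in H4 reporter cells; numbers are from one replicate; inactives centre near -14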
RN4220 kill – S. aureus RN4220 growth inhibition | OD600, 16 h | inhibition, % (concentration not given with the values) | 330,000 tested, 0.33% active;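 active = z-score of -3 or lower and OD600 up to 0.18 on both plates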;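 also: plate controls were untreated cells for no effect and reference antibiotic for full effect; stock transfer was 100 nL into about 80 µL; one replicate is shown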
Mtb hypoxia rep growth – also measured in Mtb hypoxia rep; calls as there; growth inhibition, %; measured here: M. tuberculosis growth (absorbance);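 0% = vehicle and 100% = reference antibiotic; read after six days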
Numbers without * were called inactive; / = no result given; & = joins results of further samples.

SMILES	Autofluor counter	BJeLR lethal	Mtb hypoxia rep	Mtb hypoxia rep growth	Sa ugtP lethal	PrP 5UTR inh	RN4220 kill
Cc1cccn2c(=O)c3cc(C(=O)NCC4CCCO4)c(=N)n(CCc4ccccc4)c3nc12 (stereo unspecified)	5763	6	4	10	13	-13	-1.0
CCOC(=O)Cn1c(=O)oc2cc(S(=O)(=O)N3CCn4c3nc3ccccc34)ccc21	5478	6	0	1	8	-5	2.9
Cn1nnnc1SCC(=O)NCc1ccco1	4112	-12	15	10	3	-31	2.5
CCC(C)NS(=O)(=O)c1ccc(OCC(=O)N2CCCCC2)cc1 (stereo unspecified)	12357	-4	1	1	2	-18	1.1
O=S(=O)(Cc1ccccc1)NCC1CCCN(Cc2ccc3nonc3c2)C1 (stereo unspecified)	4246	2	11	9	7	0	0.3
O=C(Cc1ccccc1)NCc1ccccn1	3540	-8	-8	-4	-9	-12	1.5
CCn1c(C)cc(C(=O)CSc2nnnn2C2CCCC2)c1C	3589	/	0	1	6	-54	5.5
COc1ccc2nc(SCC(=O)NC3CCCc4ccccc43)[nH]c2c1 (stereo unspecified)	2847	-4	12	7	-4	-13	1.4
CC(=O)c1ccc(OCCCC(=O)Nc2ccc(S(=O)(=O)N3CCOCC3)cc2)cc1	6321	-8	-1	-3	10	-10	2.9
C=CCNC(=O)CN1CCC(c2nc3cc(C)c(C)cc3[nH]2)CC1	4068	-2	-5	-3	-3	-12	-0.4
CC(=O)c1c(C)nc2ccc(C)cc2c1-c1ccccc1	3767	-5	-2	4	6	-25	4.5
O=C(Oc1ccc(/C=N/NC(=O)c2ccccc2O)cc1)c1ccccc1	3218	-2	/	/	/	-24	/
CC(NC(=O)C(=O)N1CCOCC1)C(c1cccs1)N1CCN(c2ccccc2F)CC1 (stereo unspecified)	5196	6	5	8	6	-26	2.3
CCc1cccc(NC(=O)C2CCCN2S(=O)(=O)c2ccc3c(c2)CC(C)N3C(C)=O)c1 (stereo unspecified)	6319	-11	/	/	8	-18	1.1
CCOC(=O)C1(Cc2ccc(Cl)cc2)CCN(C(=O)c2ccoc2)CC1	4254	11	9	7	5	-26	9.1
CCn1c(CC(C)C)n[nH]c1=S	3588	-3	3	8	-4	-42	5.0
Cc1cccc(NC(=O)c2ccc(NCCc3ccccc3)c([N+](=O)[O-])c2)c1	2201	-5	3	-2	2	0	2.2
NCCS(=O)(=O)NC1CCCCC1	3713	-1	2	5	1	-15	3.7
NC(=O)c1ccc(-n2nc(C(F)(F)F)c3c2CCCC3)cc1	2525	7	10	7	0	-27	7.9
COc1cc(C(=O)NCC(=O)NCC2COc3ccccc3O2)cc(OC)c1OC (stereo unspecified)	/	-3	5	-5	2	-13	-1.1
Cc1ccsc1/C=N/NC(=O)CNC(=O)c1ccccc1	4191	4	/	/	/	-8	/
N#Cc1cccc(NC(=O)COC(=O)c2ccc3c(=O)n4c(nc3c2)CCC4)c1	/	-6	4	2	4	/	2.3
COc1ccc(CN(C(=O)c2cccs2)c2nccs2)cc1OC	3953	-4	15	5	2	-11	2.8
CN(C)S(=O)(=O)c1cccc(CNCC2COc3ccccc3O2)c1 (stereo unspecified)	4372	4	-3	7	-2	-10	0.5
O=C(CN1CCOCC1)NN=C(c1ccccc1)c1ccccc1	4617	-2	4	6	7	-9	5.1

Exported bar-delimited: part of the list above
SMILES | Autofluor counter | BJeLR lethal | Mtb hypoxia rep | Mtb hypoxia rep growth | Sa ugtP lethal | PrP 5UTR inh | RN4220 kill
Cc1cccn2c(=O)c3cc(C(=O)NCC4CCCO4)c(=N)n(CCc4ccccc4)c3nc12 (stereo unspecified) | 5763 | 6 | 4 | 10 | 13 | -13 | -1.0
CC(=O)c1c(C)nc2ccc(C)cc2c1-c1ccccc1 | 3767 | -5 | -2 | 4 | 6 | -25 | 4.5
CC(NC(=O)C(=O)N1CCOCC1)C(c1cccs1)N1CCN(c2ccccc2F)CC1 (stereo unspecified) | 5196 | 6 | 5 | 8 | 6 | -26 | 2.3
CCOC(=O)C1(Cc2ccc(Cl)cc2)CCN(C(=O)c2ccoc2)CC1 | 4254 | 11 | 9 | 7 | 5 | -26 | 9.1
COc1ccc(CN(C(=O)c2cccs2)c2nccs2)cc1OC | 3953 | -4 | 15 | 5 | 2 | -11 | 2.8
C=CCNC(=O)CN1CCC(c2nc3cc(C)c(C)cc3[nH]2)CC1 | 4068 | -2 | -5 | -3 | -3 | -12 | -0.4
CCn1c(CC(C)C)n[nH]c1=S | 3588 | -3 | 3 | 8 | -4 | -42 | 5.0

Next part.
SMILES	Autofluor counter	BJeLR lethal	Mtb hypoxia rep	Mtb hypoxia rep growth	Sa ugtP lethal	PrP 5UTR inh	RN4220 kill
COc1ccc2c(CC(=O)Nc3ncc(C)s3)coc2c1	3490	3	0	2	2	-95	5.4
CCc1nn(CCCN2CCN(c3cccc(Cl)c3)CC2)c(=O)n1CCOc1ccccc1	5955&5644	6&-9	2&-1	0&3	-21&-7	2&-17	5.2&6.7
CC(=O)N1CCOc2ccc(S(=O)(=O)N3CC(C)CC(C)C3)cc21 (stereo unspecified)	5413	25	-5	-9	-8	-5	0.9
COc1ccc(NC(=O)c2cccs2)cc1	2999	-2	8	12	-2	-75	1.4
CN1CCCN(S(=O)(=O)c2ccc3ccccc3c2)CC1	3926	-7	-5	-2	11	-14	-0.3
COc1ccc(C(=O)NCC2(c3ccc(OC)c(OC)c3)CCCC2)c(OC)c1	4108	0	6	-4	7	-22	-1.8
COc1ccc(C)cc1Nc1nc(C)nc2c1oc1ccccc12	3589	-5	/	/	/	-30	/
CC(C)CC(=O)Nc1cccc(-c2nc3ccccc3o2)c1	23031*	-2	3	10	0	-20	-2.4
CC1CCC(C(C)C)C(OC(=O)C[n+]2cc(-c3ccc(Cl)cc3)n3c2CCC3)C1 (stereo unspecified)	5237	11	/	/	101*	-37	101*
O=C(c1ccc([N+](=O)[O-])o1)N1CCOCC1	4189	0	-7	1	16	-9	7.6
COc1ccc(NC(=O)/C=C/c2cccc(Br)c2)cn1	4901	2	-3	-7	-16	-107	1.7
COCC(C)n1c(COc2ccccc2F)nnc1SCc1c(C)noc1C (stereo unspecified)	4424	-6	/	/	-3	7	6.3
CN(C)C(=O)c1cc2cc(Br)ccc2s1	4445	4	5	2	1	-21	7.0
CCn1c(CNC(=O)c2ccccc2F)nnc1SCC(=O)Nc1nncs1	5214	-17	-1	-6	0	-10	1.4
CC1CC(N(C(=O)c2ccco2)c2ccccc2)c2ccccc2N1 (stereo unspecified)	4679	-6	/	/	2	-4	1.9
Cc1nn(Cc2ccccc2)c(Cl)c1/C=C/C(=O)OC(C)C(=O)N1CCCC1 (stereo unspecified)	4356	0	5	1	0	-7	1.8
CCCS(=O)(=O)N1CCN(Cc2ccc([N+](=O)[O-])cc2)CC1	2749	-16	12	7	0	-2	0.6
CC(=O)OCn1ncc(N2CCOCC2)c(Br)c1=O	3902	-1	-3	7	14	/	1.6
CC(C)c1nc2sc3c(SCC(N)=O)ncnc3c2c2c1CCC2	/	-22	8	5	20	-13	0.4
CN(C)c1ccc(/C=N/NC(=O)CN(c2cccc(Cl)c2)S(C)(=O)=O)cc1Br	2408	-2	/	/	/	-16	/
O=C(Nc1ccc(N2CCOCC2)cc1)C1CCN(S(=O)(=O)c2ccccc2F)CC1	4084	-2	-3	-7	11	-27	2.7
CCOc1ccc(OCCCCN2CCCC2)cc1	2442	27	/	/	8	-5	0.7
NC(=O)CC(NC(=O)c1ccccc1)c1ccc(N2CCc3ccccc3C2)c([N+](=O)[O-])c1 (stereo unspecified)	4156	2	11	11	-8	-17	-1.2
OCCC1CN(Cc2cc(F)ccc2F)CCN1CCCc1ccccc1 (stereo unspecified)	3271	1	-3	-5	4	-23	3.1
CCOC1OC(C(=O)NC2CC2)=CC(c2c[nH]c3ccccc23)C1CCCO (stereo unspecified)	/	/	10&6	8&11	1&4	/	2.6&7.2
Continued.
SMILES	Autofluor counter	BJeLR lethal	Mtb hypoxia rep	Mtb hypoxia rep growth	Sa ugtP lethal	PrP 5UTR inh	RN4220 kill
CCCCN1C(=O)C2(OCCCO2)c2cccc(C)c21	3708	-4	14	12	17	-36	8.0
CCOc1ccc(Nc2oc(-c3ccc(Cl)cc3)nc2C#N)cc1	8960	-7	7	8	2	-47	-2.1
COc1ccc(N2C(=O)CC(Nc3ccc(C)cc3)C2=O)cc1 (stereo unspecified)	21164*	-3	0	-12	5	-12	0.9
COc1ccc(CC(=O)OCC(=O)N2CCc3ccccc32)cc1OC	9153	/	-4	7	1	-4	0.4
CCOC(=O)c1ccc(NC(=O)CCCN2C(=O)NC3(CCCC3)C2=O)cc1	2935	/	0	5	0	-4	-0.2
COc1ccccc1/C=C/C=NNC(=O)c1ccc2nc[nH]c2c1	/	/	8	3	5	/	-4.0
COc1ccc(NC(=O)c2nc[nH]c2C(=O)NCc2ccccc2)cc1	3769	3	0	3	12	-3	9.1
O=C(O)c1ccn2c(C(=O)c3ccccc3)c(-c3ccccc3)cc2c1	4775	6	9	10	-18	-5	21
Cc1nn(CC(=O)Nc2sc3c(c2C#N)CCC(C(C)(C)C)C3)c(C)c1[N+](=O)[O-] (stereo unspecified)	4544	-3	-2	1	-16	6	-3.8
CCCCOP(=O)(c1ccc(N(C)C)cc1)C(O)c1cc(OC)c(OC)c(OC)c1 (stereo unspecified)	6304	-3	5	12	7	-28	4.9
Cc1ccccc1C1c2[nH]c3ccccc3c2CCN1C(=O)c1ccc(=O)n(C)n1 (stereo unspecified)	2593	2	10	2	18	-15	-3.8
CS(=O)(=O)N(CC(=O)Nc1c(F)cccc1F)Cc1ccccc1	4272	-7	21	6	3	-11	1.4
COc1ccc(CN(CCC(c2ccccc2)C2CCOC(C)(C)C2)C(C)=O)cc1 (stereo unspecified)	1998	-1	4	9	6	-29	-0.8
CN(C)c1ccc(C=NNC(=O)c2ccccc2O)o1	/	/	6	5	2	/	1.3
Cc1cc(C)nc(NS(=O)(=O)c2ccc(N/C=C/C(=O)c3ccc(Cl)c(Cl)c3)cc2)n1	2536	-5	/	/	/	-20	/
Cc1ccccc1NS(=O)(=O)c1nnc(NC(=O)CC(C)C)s1	3490	-4	3	-2	-14	-10	7.3
Cc1nn(-c2ccc([N+](=O)[O-])cc2)c2c1C(c1cccc(Br)c1)N1C(=N2)C(=O)Nc2ccccc21 (stereo unspecified)	2543	1	-1	9	-17	-2	-5.0
CCOC(=O)C1CSC2(CCC(c3ccccc3)CC2)N1 (stereo unspecified)	2030	0	19	4	-1	-6	17
CC[C@]12C(=O)N(C)CC(C3C(=O)N(C)C(=O)C31)N2C(=O)c1ccc(Cl)cc1 (stereo partly specified)	/	/	21	8	0	/	2.9
Fc1ccccc1N=C1NN=C(c2ccccc2)CS1	3129	2	-15	-5	-2	-67	-2.4
CCOC(=O)C(C)C(C)=NNC(=O)CCC(=O)Nc1cc(C)ccc1C (stereo unspecified)	/	/	9	4	8	/	0.8
C=CCN1C(c2ccc(Br)cc2)=CS/C1=C(/C#N)c1nnc(N2CCOCC2)n1-c1ccccc1	2696	-3	9	2	6	-9	0.3
O=C(NCc1cccs1)C1CCCN1C(=O)Nc1ccc(F)cc1 (stereo unspecified)	4192	-7	10	7	3	-3	-0.2
Cc1cccc(C(=O)Nc2ccc(C(=O)N/N=C/c3ccc(C)o3)cc2)c1	3793	0	/	/	/	-15	/
Cc1[nH]n2cnnc2c(=O)c1Br	3775	-3	2	-11	17	-2	2.5
(cont.)
SMILES	Autofluor counter	BJeLR lethal	Mtb hypoxia rep	Mtb hypoxia rep growth	Sa ugtP lethal	PrP 5UTR inh	RN4220 kill
COC(=O)c1c(-c2ccncc2)csc1NC(=O)c1ccoc1C	8292	-12	7	11	7	-54	4.1
O=c1[nH][nH]c(=O)c2nc(Nc3ccccc3)ncc12	3633	/	9	6	1	-2	5.0
Cc1cccc(C)c1OCC(=O)N/N=C/c1ccc2c(c1)OCO2	2582	-2	/	/	/	-13	/
O=S(=O)(NC1CCCCC1)c1ccc(Br)s1	3974	1	-9	6	-2	-10	5.1
C=CCn1c(COc2ccccc2)nnc1SCC(=O)Nc1ccc2c(c1)OCCO2	3478	4	/	/	4	0	1.5
O=C(NCCCn1cccn1)c1cc(COc2ccc(F)cc2Cl)on1	1900	-6	12	4	3	-38	3.8
Cc1cn(C2CCCCC2)c(=O)n(-c2ccccc2)c1=O	3850	/	7	8	-6	-8	5.7
COc1ccc(S(=O)(=O)N2CCOCC2)cc1NC(=O)CN1C(=O)CN(C)C1=O	3977	/	18	5	-1	-7	4.6
O=c1c(-c2ccccc2)cnc2n1CCS2	4434	-4	-4	-5	4	-41	7.5
Oc1ccc(Cl)cc1-c1cc(-c2ccccc2)n[nH]1	5688	0	-6	-3	20	-7	-7.6
